# Bioassay records: PubChem, Broad Institute
# NOMO-1 viab: STK33 inhibitor candidate reducing NOMO-1 cell viability; actives 7.5% (n = 37,000); inhibition, % (test concentration not listed); NOMO-1 AML viability, CellTiter-Glo luminescence, 72 h; AID 2330;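 active means most replicates above 80%; inconclusive means exactly half above 80%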;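 further: wells of about 30 µL received 25 nL stock; 0% = median of vehicle wells and 100% = reference inhibitor level; the first replicate is given; inactives centre near 10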
# * marks the source's active call; other numbers are inactive results; ? = inconclusive. The list is partial (hit frequency here may not be typical).
SMILES,NOMO-1 viab
COc1ccc(-c2cc(C(F)(F)F)n3nc(C(=O)NCc4ccco4)cc3n2)cc1OC,12
C[C@@H]1CN([C@@H](C)CO)C(=O)Cc2cc(NC(=O)CCN3CCOCC3)ccc2O[C@@H]1CN(C)C(=O)Nc1ccc(F)cc1,9
Brc1ccc(N=C(c2ccccc2)c2ccncc2)cc1,51
C[C@H](CO)N1C[C@H](C)[C@H](CN(C)S(C)(=O)=O)Oc2c(NC(=O)Nc3ccc(F)cc3)cccc2C1=O,2
CNC(=O)NC(=O)CSc1ncnc2sc(-c3ccccc3)cc12,22
COc1ccc(NC(=O)CSc2nc(N3CCCCC3)nc(N3CCCCC3)n2)cc1,21
Cc1ccc(S(=O)(=O)Nc2ccc3c(c2)C(=O)N([C@H](C)CO)C[C@@H](C)[C@H](CN(C)Cc2ccc(C(=O)Nc4ccccc4N)cc2)O3)cc1,?
CCOC(=O)c1c(NC(=O)c2ccc(C)c(S(=O)(=O)N3CCCC3)c2)sc(C)c1C,54
O=C(c1nc2ncccn2n1)N1CCc2ccccc2C1,21
C[C@@H]1CN([C@H](C)CO)C(=O)Cc2cc(NS(C)(=O)=O)ccc2O[C@H]1CN(C)S(=O)(=O)c1cn(C)cn1,19
CC1CC(C)CN(c2ccc(NS(=O)(=O)c3ccccc3)cc2C(=O)O)C1 (stereo unspecified),-6
Cc1ccc(S(=O)(=O)N(C)C[C@H]2OCCCC[C@@H](C)Oc3ccc(NC(=O)Nc4ccc(F)cc4)cc3C(=O)N([C@H](C)CO)C[C@@H]2C)cc1,22
COc1ccc(C(=O)CSc2nc3cc(C)c(C)cc3[nH]2)cc1,5
CC(=O)c1ccc(NC(=O)CSc2n[nH]c(C)n2)cc1,34
C[C@@H]1CN([C@@H](C)CO)C(=O)Cc2cc(N(C)C)ccc2O[C@@H]1CN(C)S(=O)(=O)c1cccs1,-9

# Quoted from the listing.
# CC(=O)c1ccc(NC(=O)CSc2n[nH]c(C)n2)cc1 – NOMO-1 viab: 34
# C[C@@H]1CN([C@@H](C)CO)C(=O)Cc2cc(NC(=O)CCN3CCOCC3)ccc2O[C@@H]1CN(C)C(=O)Nc1ccc(F)cc1 – NOMO-1 viab: 9
# C[C@H](CO)N1C[C@H](C)[C@H](CN(C)S(C)(=O)=O)Oc2c(NC(=O)Nc3ccc(F)cc3)cccc2C1=O – NOMO-1 viab: 2
# CNC(=O)NC(=O)CSc1ncnc2sc(-c3ccccc3)cc12 – NOMO-1 viab: 22
# Brc1ccc(N=C(c2ccccc2)c2ccncc2)cc1 – NOMO-1 viab: 51
# O=C(c1nc2ncccn2n1)N1CCc2ccccc2C1 – NOMO-1 viab: 21

# Additional structures follow:
SMILES,NOMO-1 viab
C[C@@H]1CN([C@H](C)CO)C(=O)Cc2cc(NS(=O)(=O)c3cccs3)ccc2O[C@@H]1CN(C)S(C)(=O)=O,14
COc1ccc(NC(=O)N(C)C[C@H]2Oc3c(NC(=O)NC(C)C)cccc3C(=O)N([C@@H](C)CO)C[C@H]2C)cc1,3
O=C(O)CCC(=O)Nc1cccc(C(F)(F)F)c1,-20
C[C@@H]1CN([C@@H](C)CO)C(=O)c2cc(NC(=O)c3ccncc3)ccc2O[C@@H]1CN(C)Cc1ccc(C(=O)Nc2ccccc2N)cc1,?
C[C@@H]1CN([C@H](C)CO)C(=O)c2cc(N(C)C)ccc2O[C@@H]1CN(C)Cc1ccc(C(=O)Nc2ccccc2N)cc1,110*
O=C(COc1ccc(C(=O)Nc2ccc(Cl)cc2)cc1)Nc1ccccc1C(F)(F)F,-4
O=C(Cn1ccc([N+](=O)[O-])n1)Nc1ccc(F)cc1,1
C[C@@H]1CN([C@H](C)CO)C(=O)Cc2cc(NC(=O)CCN3CCOCC3)ccc2O[C@H]1CN(C)C(=O)Nc1cccc2ccccc12,12
COc1cc(OC)c2c(=O)c(-c3ccccc3)coc2c1,0
CCCCN(C(=O)c1ccccc1)C1CC2CCC(C1)N2C (stereo unspecified),-3
COc1ccc(S(=O)(=O)N(C)C[C@@H]2Oc3ccc(NS(=O)(=O)c4cccs4)cc3CC(=O)N([C@@H](C)CO)C[C@@H]2C)cc1,16
Cc1noc(C)c1NC(=O)Nc1cccc2c1O[C@H](CN(C)Cc1ccc(C(F)(F)F)cc1)[C@H](C)CN([C@@H](C)CO)C2=O,6
CS(=O)(=O)N(CC(=O)Nc1ccc2ccccc2c1)c1ccc(F)cc1,41
Cc1ccc(S(=O)(=O)Nc2cccc3c2O[C@@H](CN(C)C(=O)NC2CCCCC2)[C@@H](C)CN([C@@H](C)CO)C3=O)cc1,27
COc1ccc(NC(=O)Nc2ccc3c(c2)CC(=O)N([C@@H](C)CO)C[C@@H](C)[C@@H](CN(C)C(=O)Nc2ccccc2)O3)cc1,31
CC(C)NC(=O)N(C)C[C@H]1Oc2ccc(NC(=O)C3CCCCC3)cc2CC(=O)N([C@H](C)CO)C[C@H]1C,18
CC(C)NC(=O)Nc1cccc2c1O[C@@H](CN(C)Cc1ccc(-c3ccccc3)cc1)[C@@H](C)CN([C@H](C)CO)C2=O,32
Cc1ccc(N(CC(=O)NC2CCCC2)S(C)(=O)=O)cc1Cl,38
COC(=O)C[C@H]1C(C)(C)[C@@H](OC(C)=O)[C@@H]2CC3=C4CC(=O)O[C@@H](c5ccoc5)[C@]4(C)CCC3[C@@]1(C)C2=O (stereo partly specified),2
CCC(Sc1nnc2c3ccccc3n(C)c2n1)C(=O)Nc1cccc2ccccc12 (stereo unspecified),43
O=C(Oc1cccc(C(F)(F)F)c1)c1cc2ccc3ccccc3c2s1,17
O=C(CCCN1C(=O)c2ccccc2C1=O)Nc1cccc(F)c1,6
C[C@@H]1CN([C@@H](C)CO)C(=O)Cc2cc(NS(=O)(=O)c3ccc(Cl)cc3)ccc2O[C@@H]1CN(C)C(=O)Nc1ccc(F)cc1,-1
C[C@@H]1CN([C@H](C)CO)C(=O)c2cc(NC(=O)NC3CCCCC3)ccc2O[C@H]1CN(C)C(=O)Nc1cccc2ccccc12,12
C[C@@H]1CCCCO[C@@H](CN(C)Cc2ccc(C(=O)O)cc2)[C@@H](C)CN([C@H](C)CO)C(=O)c2cc(NC(=O)c3ccccc3)ccc2O1,-19
CNC[C@@H]1Oc2ccc(NS(=O)(=O)c3cn(C)cn3)cc2C(=O)N([C@H](C)CO)C[C@@H]1C,9
O=C(/C=C/c1ccc(O)cc1)OC[C@H]1O[C@@H](O[C@@H]2OC=C[C@H]3[C@H](O)[C@@H]4O[C@]4(CO)[C@@H]23)[C@H](O)[C@@H](O)[C@@H]1O,3
Cc1ccc2cccc(OCc3nnc(SCC(N)=O)n3C)c2n1,-5
Cc1ccc(S(=O)(=O)N(C)C[C@@H]2Oc3ccc(NC(=O)Nc4ccc5c(c4)OCO5)cc3C(=O)N([C@H](C)CO)C[C@@H]2C)cc1,17
COc1ccc(NC(=O)N(C)C[C@@H]2Oc3ccc(NC(=O)Nc4ccccc4)cc3CC(=O)N([C@@H](C)CO)C[C@@H]2C)cc1,6

# Two entries from above, tab-delimited.
Molecule	NOMO-1 viab
O=C(O)CCC(=O)Nc1cccc(C(F)(F)F)c1	-20
C[C@@H]1CN([C@@H](C)CO)C(=O)c2cc(NC(=O)c3ccncc3)ccc2O[C@@H]1CN(C)Cc1ccc(C(=O)Nc2ccccc2N)cc1	?

# Following part
SMILES,NOMO-1 viab
O=C(CSc1nnc(-c2ccccc2Cl)n1-c1ccccc1)Nc1ccc(Br)cc1,?
C[C@@H]1CN([C@H](C)CO)C(=O)Cc2cc(NC(=O)Cc3cn(C)c4ccccc34)ccc2O[C@@H]1CN(C)Cc1ccc(C(=O)Nc2ccccc2N)cc1,77
COc1ccc(C(=O)Nc2sc3c(c2C(=O)Nc2cccc(OC)c2)CCC3)cc1,11
C[C@H]1CN([C@@H](C)CO)C(=O)Cc2cc(NC(=O)Nc3ccc(C(F)(F)F)cc3)ccc2O[C@H]1CN(C)Cc1ccc(Cl)c(Cl)c1,136*
COc1ccc(NC(=O)N(C)C[C@H]2Oc3ccc(NC(=O)Cc4ccccc4)cc3CC(=O)N([C@@H](C)CO)C[C@@H]2C)cc1,1
CNC(=O)CN(C#N)c1nc(C)cc(C)n1,-3
COc1ccc(NC(=O)N(C)C[C@H]2Oc3ccc(NS(=O)(=O)c4ccccc4)cc3CC(=O)N([C@@H](C)CO)C[C@@H]2C)cc1,4
COc1ccc(NC(=O)c2c(NC(=O)Cc3ccc(OC)c(OC)c3)sc3c2CCC3)cc1,36
Cc1ccc(S(=O)(=O)Nc2ccc3c(c2)C(=O)N([C@@H](C)CO)C[C@@H](C)[C@@H](CN(C)C(=O)Nc2c(C)noc2C)O3)cc1,0
c1ccc(-c2cc3c(N4CCc5ccccc54)ncnc3s2)cc1,23
COCc1nc2c([nH]1)C(c1ccccc1COc1ccc(Cl)cc1)C(C#N)=C(N)O2 (stereo unspecified),111*
C[C@@H]1CN([C@@H](C)CO)C(=O)c2cc(NC(=O)NC3CCCCC3)ccc2O[C@@H]1CN(C)Cc1ccc(Oc2ccccc2)cc1,120*
CN1CCN(c2ccccc2NC(=O)COc2ccc(Br)cc2)CC1,1
COc1ccc(S(=O)(=O)N(C)C[C@H]2Oc3ccc(NC(=O)CCC(F)(F)F)cc3CC(=O)N([C@H](C)CO)C[C@H]2C)cc1,16
O=C(CCn1nc(-c2ccc(Cl)cc2)c2ccccc2c1=O)Nc1ccccc1,31
C[C@@H]1CN([C@@H](C)CO)C(=O)c2cc(NC(=O)Cc3cn(C)c4ccccc34)ccc2O[C@H]1CN(C)S(C)(=O)=O,-4
O=C(Oc1ccc(Cl)cc1Cl)c1cccnc1SCCS(=O)(=O)c1ccccc1,21
Cc1noc(C)c1NC(=O)Nc1cccc2c1O[C@@H](CN(C)C(=O)Nc1ccc(C(F)(F)F)cc1)[C@H](C)CN([C@@H](C)CO)C2=O,1
COc1ccc(NC(=O)N(C)C[C@H]2Oc3c(NC(=O)Nc4ccc(C(F)(F)F)cc4)cccc3C(=O)N([C@H](C)CO)C[C@H]2C)cc1,34
C[C@@H]1CN([C@H](C)CO)C(=O)Cc2cc(NC(=O)Cn3cnnn3)ccc2O[C@@H]1CN(C)S(=O)(=O)c1ccc(Cl)cc1,8
COc1ccc(OC)c(NC(=O)CSc2n[nH]c(-c3ccncc3)n2)c1,14
Cc1ccc(S(=O)(=O)N(C)C[C@H]2Oc3ccc(NS(=O)(=O)c4c(C)noc4C)cc3C(=O)N([C@H](C)CO)C[C@H]2C)cc1,-3
Cc1ccc(S(=O)(=O)N(C)C[C@@H]2Oc3ccc(NS(=O)(=O)c4ccccc4)cc3C(=O)N([C@H](C)CO)C[C@H]2C)cc1,-10
Cc1ccc(S(=O)(=O)N(C)C[C@@H]2Oc3ccc(NS(C)(=O)=O)cc3C(=O)N([C@@H](C)CO)C[C@H]2C)cc1,10
Cc1noc(C)c1S(=O)(=O)Nc1ccc2c(c1)CC(=O)N([C@@H](C)CO)C[C@@H](C)[C@@H](CN(C)Cc1ccc(Oc3ccccc3)cc1)O2,41
O=C(Cn1cncc1-c1ccc([N+](=O)[O-])cc1)Nc1ccccc1F,63
COC(=O)Oc1cc2oc(=O)sc2cc1Cl,10
c1ccc(-c2nnc3n2N=C(c2cccs2)CS3)cc1,44
COc1ccc(CC(=O)NCc2n[nH]c(=S)n2C)cc1,-20
Cc1ccc(S(=O)(=O)Nc2ccc3c(c2)CC(=O)N([C@H](C)CO)C[C@@H](C)[C@@H](CN(C)S(=O)(=O)c2ccc(C)cc2)O3)cc1,62
CC(C)NC(=O)N(C)C[C@@H]1Oc2ccc(NS(=O)(=O)c3ccc(Cl)cc3)cc2CC(=O)N([C@H](C)CO)C[C@H]1C,22
C[C@@]12C[C@]3(O)O[C@H](O1)[C@]1(COC(=O)c4ccccc4)[C@H]3C[C@@]12O[C@@H]1O[C@H](CO)[C@@H](O)[C@H](O)[C@H]1O,4
C[C@H]1CN([C@@H](C)CO)C(=O)c2cc(NC(=O)CCCCCC(=O)Nc3ccccc3N)ccc2O[C@@H]1CN(C)C(=O)NC1CCCCC1,17
CC12CCC(C(=O)Nc3ccncc3)(c3nc4ccccc4nc31)C2(C)C (stereo unspecified),42
O=C(CNS(=O)(=O)c1ccccc1)Nc1cccc(Cl)c1Cl,1
Cc1ccc2oc(-c3ccc(Cl)c(NC(=O)COc4ccc(Br)cc4)c3)nc2c1,56
C[C@H](CO)N1C[C@H](C)[C@@H](CN(C)S(=O)(=O)c2ccccc2)Oc2ccc(NC(=O)CCN3CCOCC3)cc2C1=O,9
C[C@@H]1CN([C@H](C)CO)C(=O)Cc2cc(NS(=O)(=O)c3cn(C)cn3)ccc2O[C@@H]1CN(C)S(=O)(=O)c1ccc(F)cc1,18
COc1ccc(S(=O)(=O)N(C)CC(=O)O)cc1Cl,-11
C[C@H]1CN([C@@H](C)CO)C(=O)c2cccc(NS(=O)(=O)c3cn(C)cn3)c2O[C@@H]1CN(C)S(=O)(=O)c1ccc(Cl)cc1,-9
Cc1ccc(S(=O)(=O)Nc2ccc3c(c2)C(=O)N([C@@H](C)CO)C[C@@H](C)[C@H](CN(C)Cc2ccc(C(=O)O)cc2)O3)cc1,3
CCn1ncc(Cl)c1C(=O)NCc1ccco1,15
C[C@@H]1CN([C@H](C)CO)C(=O)c2cc(NS(=O)(=O)c3ccc(F)cc3)ccc2O[C@H]1CN(C)C,4
C[C@@H]1CN([C@H](C)CO)C(=O)c2cc(NC(=O)NC3CCCCC3)ccc2O[C@H]1CN(C)Cc1ccccc1,-2
Cc1noc(C)c1NC(=O)N(C)C[C@H]1Oc2c(NC(=O)c3nc4ccccc4s3)cccc2C(=O)N([C@@H](C)CO)C[C@H]1C,22
COc1ccc(-n2c(SCC(N)=O)nc3c(c2=O)C2(CCCCC2)Cc2ccccc2-3)cc1,22

# Of the compounds above, these contain a nitro group on carbon:
SMILES,NOMO-1 viab
O=C(Cn1ccc([N+](=O)[O-])n1)Nc1ccc(F)cc1,1
O=C(Cn1cncc1-c1ccc([N+](=O)[O-])cc1)Nc1ccccc1F,63
